Arbovirus anti: antivirals against arbovirus infection | arbovirus infection cell-based antiviral screen | inhibition, % at 10 µM | 200,000 compounds, 0.37% hits | AID 1251;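 active = inhibition from about 30%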;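 note: bluetongue infection of BSR cells; cell survival read as ATP light after 72 h; 0% = infected wells without compound and 100% = uninfected wells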
Mtb H37Rv: M. tuberculosis H37Rv growth inhibitors, H37Rv strain (AID 1626); inhibition, % at 10 µM; hits with a dose series show IC50 in µM; 220,000 compounds, 0.95% hits; M. tuberculosis H37Rv growth inhibition; higher % means a stronger effect;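 active = confirmed in a dose series; inconclusive = inhibition above 80% but not taken into the dose series; inactive = below 80% or under 30% at every dose of the series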;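 note: bacteria incubated seven days before Alamar blue readout; 0% = bacteria only wells and 100% = bacteria with antibiotic wells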
RecA intein inh: Mtb RecA intein splicing inhibition; P9WHJ3; cell-free RecA intein splicing, fluorescence; inhibition, %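 (about 9 µM by stock and volumes)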; 290,000 compounds, 0.75% hits; AID 2221; in the data active = inhibition above about 30%; inconclusive = no clear call, values can overlap the other calls;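 note: 0% = vehicle wells and 100% = reference inhibitor control wells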
Target sequence (P9WHJ3 whole entry, looked up): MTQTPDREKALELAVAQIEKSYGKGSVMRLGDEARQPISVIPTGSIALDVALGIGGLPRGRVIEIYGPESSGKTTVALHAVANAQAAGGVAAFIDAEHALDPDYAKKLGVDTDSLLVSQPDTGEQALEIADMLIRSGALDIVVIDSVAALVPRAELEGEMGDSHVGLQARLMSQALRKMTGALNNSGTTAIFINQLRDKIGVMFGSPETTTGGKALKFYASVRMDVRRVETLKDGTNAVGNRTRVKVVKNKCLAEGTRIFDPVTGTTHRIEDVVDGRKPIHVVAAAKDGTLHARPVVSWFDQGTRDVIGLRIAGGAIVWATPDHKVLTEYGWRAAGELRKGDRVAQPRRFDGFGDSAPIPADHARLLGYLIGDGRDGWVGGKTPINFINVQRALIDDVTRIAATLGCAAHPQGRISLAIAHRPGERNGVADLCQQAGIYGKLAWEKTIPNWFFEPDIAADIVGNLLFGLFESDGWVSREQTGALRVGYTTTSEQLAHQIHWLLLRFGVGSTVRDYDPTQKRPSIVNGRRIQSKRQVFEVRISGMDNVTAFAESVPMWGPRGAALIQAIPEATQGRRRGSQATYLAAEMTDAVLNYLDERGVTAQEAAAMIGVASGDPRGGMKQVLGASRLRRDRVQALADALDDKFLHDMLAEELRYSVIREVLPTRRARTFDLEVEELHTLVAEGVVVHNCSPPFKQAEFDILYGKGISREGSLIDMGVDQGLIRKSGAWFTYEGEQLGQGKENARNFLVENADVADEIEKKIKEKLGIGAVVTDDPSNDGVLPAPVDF
Mtb bLac sens: beta-lactam sensitization of Mtb H37Rv; M. tuberculosis H37Rv growth with meropenem, percent inhibition; hits of this screen are not shown here; inhibition, % at 25 µM; 330,000 compounds, 0.27% hits; AID 434955;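 active = about 74% or more and at least 40 points above the plate without the antibiotic, then above 30% in a dose series; inconclusive = first-round hits that could not be retested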;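 note: growth measured after seven days incubation then overnight dye step; 0% = bacteria only wells and 100% = bacteria with antibiotic; twin plates without the antibiotic show which effects depend on it; some results filed as inactive read as strong as hits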
YopH inh: blocks Yersinia enterocolitica YopH tyrosine phosphatase | fluorescence Ex485/Em525 | inhibition, %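 (about 10 µM by stock and volumes)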 | 140,000 compounds, 0.16% hits;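 active = inhibition of 50% or more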;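 note: controls were vehicle for no effect and minimum signal wells for full effect; inactives centre near -20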
Arbovirus anti repeat: also measured in Arbovirus anti; calls as there; inhibition, %; measured here: 10K subset replicate screen; many hits read low in the repeat;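 first of two repeat runs on a subset; 0% = infected and 100% = uninfected wells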
Numbers without * were called inactive; ? = inconclusive; . = not tested or not shown. Only part of the results is shown; count on the stated rates, not on these rows.

Start of the listing, in advance, 6 compounds:
SMILES	Arbovirus anti	Mtb H37Rv	RecA intein inh	Mtb bLac sens	YopH inh	others
CCC(C)Nc1nc(OC(C(F)(F)F)C(F)(F)F)nc(OC(C(F)(F)F)C(F)(F)F)n1 (stereo not given)	1	1%	-1.9	-9	-10
COc1cccc(NC(=S)NCc2ccc(F)cc2)c1	.	.	0.3	5	.
CCOc1ccc(-c2ccc(SC)nn2)cc1	-5	2%	-0.9	-1	.
COc1cc(NC(=O)C(=O)Nc2ccc3nc4n(c(=O)c3c2)CCCCC4)cc(OC)c1OC	.	.	-0.5	1	.
CN1CCN(C(=O)CCN2C(=O)c3ccccc3C2=O)CC1	5	0%	0.1	-1	.
S=C(NCC1CCCO1)Nc1ccccc1 (stereo not given)	-2	7%	-0.3	-6	.

Main list, repeating the preview:
SMILES	Arbovirus anti	Mtb H37Rv	RecA intein inh	Mtb bLac sens	YopH inh	others
CCC(C)Nc1nc(OC(C(F)(F)F)C(F)(F)F)nc(OC(C(F)(F)F)C(F)(F)F)n1 (stereo not given)	1	1%	-1.9	-9	-10
COc1cccc(NC(=S)NCc2ccc(F)cc2)c1	.	.	0.3	5	.
CCOc1ccc(-c2ccc(SC)nn2)cc1	-5	2%	-0.9	-1	.
COc1cc(NC(=O)C(=O)Nc2ccc3nc4n(c(=O)c3c2)CCCCC4)cc(OC)c1OC	.	.	-0.5	1	.
CN1CCN(C(=O)CCN2C(=O)c3ccccc3C2=O)CC1	5	0%	0.1	-1	.
S=C(NCC1CCCO1)Nc1ccccc1 (stereo not given)	-2	7%	-0.3	-6	.
CCOC(=O)COc1ccc(C(c2c(C)[nH][nH]c2=O)c2c(C)[nH][nH]c2=O)cc1	.	.	-0.5	3	.
CCOC(=O)N1CCN(C(=O)NC23CC4CC(CC(C4)C2)C3)CC1	9	1%	-2.2	-1	-30	Arbovirus anti repeat=-2
CC(=O)N1c2ccc(S(=O)(=O)N(C)CC(=O)Nc3cccc(C)c3)cc2CC1C (stereo not given)	.	.	2.4	-10	.
CCN1CCc2[nH]c3ccccc3c2C1	.	.	-1.3	9	.
O=C(COC(=O)c1cnccn1)N=c1sccn1Cc1ccccc1Cl	.	.	-2.0	-1	.
O=C(CCN1C(=O)c2ccccc2C1=O)N1CCN(c2ccccn2)CC1	0	-2%	0.4	-2	-20
CC(=O)Oc1ccc2oc(-c3ccccc3)c(C(N)=O)c2c1	.	-12%	-0.4	6	.
CCN(C(=O)CSc1nc2cc(S(=O)(=O)N(CC)CC)ccc2n1CC)C1CCS(=O)(=O)C1 (stereo not given)	.	.	-2.9	2	.
CCc1ccc(NC(=O)CS(=O)CC(=O)Nc2ccc(-n3cnnn3)c(C)c2)cc1 (stereo not given)	.	.	0.7	2	.
OC(CSc1ccccc1Cl)CN1CCN(c2ccc(F)cc2)CC1 (stereo not given)	-2	22%	.	68	-40
O=C(OCCN(C1=NS(=O)(=O)c2ccccc21)c1ccc(Cl)cc1)c1ccco1	6	-11%	-0.3	-1	-9	Arbovirus anti repeat=18
CC(Oc1ccc(C(=O)c2ccccc2)cc1)C(=O)Nc1ccc(S(N)(=O)=O)cc1 (stereo not given)	4	4%	0.2	-4	-27
COCc1ccc(C(=O)N2CCCC(C(=O)c3ccc(SC)cc3)C2)s1 (stereo not given)	.	.	1.6	-2	.
Cc1ccc(-c2nnc(SCC(=O)N/N=C/c3ccc(C)s3)n2-c2ccccc2)cc1	-6	.	-0.7	-8	-22

Brought forward from above: two compounds; new compounds follow.
SMILES	Arbovirus anti	Mtb H37Rv	RecA intein inh	Mtb bLac sens	YopH inh	others
COCc1ccc(C(=O)N2CCCC(C(=O)c3ccc(SC)cc3)C2)s1 (stereo not given)	.	.	1.6	-2	.
Cc1ccc(-c2nnc(SCC(=O)N/N=C/c3ccc(C)s3)n2-c2ccccc2)cc1	-6	.	-0.7	-8	-22
COc1ccc(CCNC(=O)CNC(=O)c2ccc(Br)o2)cc1OC	.	.	-0.7	4	.
O=S(=O)(NCc1ccco1)c1ccc(S(=O)(=O)N2CCCCC2)cc1	20	-4%	-0.2	-4	-21
COCCCn1c(-c2ccccc2Cl)n[nH]c1=S	2	1%	-1.7	-1	-14
O=C(c1ccco1)N1CCCC(c2nc(-c3ccc(S(=O)(=O)NCc4ccccc4)cc3)no2)C1 (stereo not given)	8	.	-7.9	31	-23	Arbovirus anti repeat=1
COc1ccc(N(C)C(=O)CN(C)S(=O)(=O)c2ccc3c(c2)c(=O)n(C)c(=O)n3C)c(OC)c1	.	.	-1.1	5	.
O=C(O)c1ccc(Cl)c(NC(=S)NC(=O)c2ccccc2[N+](=O)[O-])c1	-1	-1%	-4.6	2	.
N#Cc1cc(-c2ccccc2)cn(Cc2c(Cl)cccc2Cl)c1=O	-8	2%	-8.8	-9	-16
CCCCCn1c(CN2CCN(Cc3ccccc3)CC2)nc2c1c(=O)[nH]c(=O)n2C	3	-1%	-0.6	-1	6
COc1cccc(C2C(C(N)=O)=C(C)Nc3nc(CCCO)nn32)c1 (stereo not given)	.	.	-1.8	?	.
COc1ccc(CCN2C(=O)C3C(C2=O)C2C=CC3C23CC3)cc1OC (stereo not given)	19	6%	1.3	3	.
CCn1cc(CN(C)S(=O)(=O)c2ccc3ccccc3c2)c(C)n1	9	-3%	2.4	-6	-26
O=S(=O)(Nc1ccon1)c1ccc(Br)s1	.	.	-0.9	-2	.
CCS(=O)(=O)N1CCC(C(=O)Nc2ccc(C(C)=O)cc2)CC1	.	.	-3.6	3	.
C[C@@H]1CCC[C@@]2(O[C@H](CCO)C[C@@H](O)[C@@H]2O)O1	-4	-10%	-2.0	-1	-36
CCN(CC)c1ccc(/C=N/NC(=O)c2ccc([N+](=O)[O-])cc2)cc1	3	-1%	-0.2	1	.
Cc1ccc(S(=O)(=O)N2CCCC(C(=O)N3CCCc4ccccc43)C2)cc1 (stereo not given)	8	-16%	-3.7	-1	-31
CCOC(=O)NNC1CC(=O)N(c2ccccc2)C1=O (stereo not given)	9	9%	-2.1	1	-4
Cc1nn(Cc2ccccc2Cl)c(Cl)c1C(=O)O	6	-3%	0.5	-8	.
Cc1cc2ncc(-c3ccccc3)nc2cc1C	.	.	2.9	1	.
O=C(c1cnc2n(c1=O)CCS2)N1CCN(c2ccc(Cl)c(Cl)c2)CC1	14	60%	2.6	97	1

An excerpt from above in order of SMILES length, lowest first.
SMILES	Arbovirus anti	Mtb H37Rv	RecA intein inh	Mtb bLac sens	YopH inh	others
Cc1nn(Cc2ccccc2Cl)c(Cl)c1C(=O)O	6	-3%	0.5	-8	.
N#Cc1cc(-c2ccccc2)cn(Cc2c(Cl)cccc2Cl)c1=O	-8	2%	-8.8	-9	-16
CCS(=O)(=O)N1CCC(C(=O)Nc2ccc(C(C)=O)cc2)CC1	.	.	-3.6	3	.
O=C(O)c1ccc(Cl)c(NC(=S)NC(=O)c2ccccc2[N+](=O)[O-])c1	-1	-1%	-4.6	2	.

(list continues)
SMILES	Arbovirus anti	Mtb H37Rv	RecA intein inh	Mtb bLac sens	YopH inh	others
Cc1ccccc1NC(=O)OCc1cccnc1Oc1ccc(Cl)cc1	5	9%	-0.6	7	.
N#Cc1ccc(-c2ccco2)nc1SCc1ccccc1	-11	-6%	11	32	5
Cc1ccc(-c2nnc(SC(C)C(=O)NCC3CCCO3)nc2-c2ccc(C)cc2)cc1 (stereo not given)	.	.	5.4	2	.
Cc1ccccc1OCC(=O)N/N=C/c1ccccn1	-11	3%	0.5	-10	.
O=[N+]([O-])/C=C1\C=CC=CN1Cc1ccc(Cl)cc1	.	.	2.5	0	.
COc1ccc(OC)c(C2CC(=O)N3CN(c4ccc(C)c(Cl)c4)CSC3=C2C#N)c1 (stereo not given)	4	?	3.9	-4	-22	Arbovirus anti repeat=0
COc1ccc(OCC(O)CN2CCCCCC2)cc1 (stereo not given)	1	-5%	-4.5	-1	-2
COc1ccc(Br)cc1CN1CCN(C(=O)c2cccc(OC)c2OC)CC1	-5	8%	1.7	-3	-3
CCOC(=O)C(=O)N=Nc1c(O)[nH]c2ccccc12	-3	-2%	-4.8	-2	-36
Cc1ccccc1NC(=O)Cc1nc(CSc2nnc(C3CCCCC3)n2N)cs1	4	-9%	-2.2	8	-39
CCCC(=O)N(C1CC(C)C(C#N)(C#N)C1(C#N)C#N)N(C)C (stereo not given)	.	-9%	93*	7	.
O=C1COc2ccc(C(=O)COC(=O)c3cccnc3Cl)cc2N1	-6	-9%	.	-3	.
COc1cc(/C=C/C(=O)c2ccc(NS(=O)(=O)c3ccc(C)cc3)cc2)cc(OC)c1O	-35	19%	-4.3	6	-5
CCOc1c(N2CC(C)OC(C)C2)c(=O)c1=O (stereo not given)	.	-7%	1.3	6	.
COc1ccc(NC(=O)CSc2nc(-c3ccncc3)nn2CC(=O)N2CCCC2)cc1	9	-2%	-1.8	-7	-36
CCN(CC)S(=O)(=O)c1cccc(-c2nc3n(n2)Cc2ccccc2-3)c1	-1	15%	-0.5	2	-45
CCCCOc1ccc(-c2nnc(-c3ccco3)o2)cc1	15	3%	-1.7	23	-49
CC[C@H](C)[C@H](NS(=O)(=O)c1ccc(C)cc1)C(=O)N1CCC(C(=O)N[C@@H](C)C(=O)O)CC1	7	-3%	-0.8	-3	-8
Cc1ccc(-n2c(=O)[nH]cc(C(=O)Nc3ccc4c(c3)OCO4)c2=O)cc1C	5	2%	-1.6	-4	.	Arbovirus anti repeat=0
CCCC(=O)Nc1ccc(N2CCN(S(C)(=O)=O)CC2)cc1	8	3%	-4.2	-4	-9
CCN(CC)CCC(C)OC(=O)c1ccc(O)cc1O (stereo not given)	6	-4%	2.0	-11	.
CCCN(CCC)CCCNS(=O)(=O)c1cc(Br)cc2c1N(C(C)=O)CC2	9	7%	-1.6	2	-60
CCOC(=O)C(=Cc1cc(=O)c(OC)co1)C(=O)OCC	-37	6%	2.8	.	-25
O=S(=O)(c1ccc(-c2ccccc2)cc1)N1CCCC1	-5	-4%	1.1	-2	.
COc1cccc(-c2c3c([nH]c(=O)c2C#N)CCc2cc(OC)ccc2-3)c1	.	6%	-12	4	.
CCC1(C)Cc2c(sc3c2c2ncnn2c2nnc(SCC(=O)NCc4ccco4)n32)CO1 (stereo not given)	4	0%	-0.6	3	-17	Arbovirus anti repeat=-2
NC(=O)C1CCCN(C(=O)c2ccc3oc(Cc4ccc(Cl)cc4)nc3c2)C1 (stereo not given)	.	.	-6.2	0	.
O=C(Nc1ncc2c(n1)-c1ccccc1CC2)c1ccc(F)cc1	9	-5%	-1.5	-1	-46
CSc1nc(N2CCN(c3ccccc3Cl)CC2)c2ccccc2n1	6	?	9.1	8	.
CCOC(=O)c1nnn(CC(=O)Nc2cc(Cl)ccc2C)c1C(=O)OCC	-2	-1%	-3.6	-4	-26
CCC(=O)N/C=C/n1cnc2cc(C(F)(F)F)ccc21	-4	2%	-0.7	-12	-48
O=C(O)c1ccccc1C(=O)NCC(O)c1ccccc1 (stereo not given)	.	-14%	-1.2	1	.
COc1ccc(NC2=C(NCCO)C(=O)c3ccccc3C2=O)cc1	-37	21%	56*	4	78*
C=CCn1c(O)c(C(CC)=Nc2ccc(C(=O)O)cc2)c(=O)[nH]c1=O	.	-1%	2.3	-3	.
COc1ccc(C(=O)NC(=S)N2CCOCC2)cc1[N+](=O)[O-]	.	.	0.8	1	.
COc1cccc(Nc2nc(N)c([N+](=O)[O-])c(NCc3ccccc3)n2)c1	.	15%	10	11	.

Bioassay records deposited in PubChem BioAssay by several laboratories.
